# Screening results from PubChem BioAssay.
# Rango release inh: qHTS Assay for Inhibitors of RanGTP induced Rango (Ran-regulated importin-beta cargo) - Importin beta complex dissociation | Potency, µM (top dose mostly 46.1 µM), for inactives: top-dose activity change, negative = inhibition | Biochemical FRET Rango-importin beta, RanGTP-induced dissociation | AID 540253, 2011 | hit rate 0.071% among 340,000; active means falling FRET ratio curve, often poorly fitted, with flat reads before Ran was added; inconclusive means other falling curves, or compound fluorescence or quenching; inactive means flat or rising ratio curve;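 note: potency is the fitted concentration of half-maximal effect; % of control where 0% means no effect; nearly all actives have a fitted effect of over 45% in size; -100% = wells without RanGTP and RCC1; the record marks most hits as doubtful in a second field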
#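 Rango (0.1 uM)–importin beta (0.25 uM) complex; RanGTP-RCC1 trigger; 45 min RT; CFP/YFP FRET read.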
# miR-21 reporter: qHTS Assay for Modulators of miRNAs and/orActivators of miR-21. Potency, µM (series often up to 38.3 µM), inactives show at the highest dose reporter change, positive = more light. HeLa miR-21 FLuc reporter, luciferase, 48 h. AID 2288, 2010. 340,000 tested, under 10 active; active = well fitted rising curve with a large enough effect; inconclusive = small, poorly fitted or top-dose-only effect; inactive = no such curve, though single readings can be large or run the other way;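 note: % of control where 0% means no effect; miR-21 action dims this reporter so a rising signal means less miR-21 action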
#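 HeLa cells stably expressing CMV-driven firefly luciferase with a downstream miR-21 binding sequence, endogenously expressing miR-21, were treated with titrations (up to about 40uM final) for 48 hours at 37 degree Celsius. Luciferase luminescence was read after lysis.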
# Rango-impB inh: qHTS Assay for Inhibitors of Rango (Ran-regulated importin-beta cargo) - Importin beta complex formation; Importin subunit beta-1 (Homo sapiens), Q14974; hit rate 0.031% among 340,000; Rango CFP/YFP FRET sensor + importin beta, 45 min; Potency, µM (series often up to 92.2 µM), for inactives: at the top dose inhibition of complex formation; active = rising FRET ratio curve, often small or poorly fitted; inconclusive = mostly compound fluorescence or quenching in the first reads; inactive = flat curves in all reads;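 note: potency is the fitted concentration of half-maximal effect; 0% = DMSO wells and 100% = buffer wells lacking importin beta; nearly all actives have a fitted effect of over 15% in size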
#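 FRET biosensor Rango (snurportin 1 IBB between N-terminal EYFP and C-terminal Cerulean), 50 nM in PBS/1 mM DTT/0.02% Tween-20/0.1% BSA, preincubated 5 min RT with compound; 0.125 microM importin beta added, 45 min RT, CFP/YFP FRET ratio read.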
# GLA inh pH 4.5: qHTS Assay for Inhibitors of Human alpha-Galactosidase at pH 4.5; purified enzyme, 4-MU-alpha-Gal fluorescence, pH 4.5; activity change, negative = inhibition, % at 105 µM; 230,000 tested, under 10 active; inconclusive = small, poorly fitted or top-dose-only inhibition, or a rising curve; inactive = flat fitted curve, though single readings scatter; no compound was filed as active;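 note: 0% = full activity with enzyme and -100% = basal without enzyme; dose as in the result columns while the protocol names 77 µM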
# Target sequence (P06280 whole entry, looked up): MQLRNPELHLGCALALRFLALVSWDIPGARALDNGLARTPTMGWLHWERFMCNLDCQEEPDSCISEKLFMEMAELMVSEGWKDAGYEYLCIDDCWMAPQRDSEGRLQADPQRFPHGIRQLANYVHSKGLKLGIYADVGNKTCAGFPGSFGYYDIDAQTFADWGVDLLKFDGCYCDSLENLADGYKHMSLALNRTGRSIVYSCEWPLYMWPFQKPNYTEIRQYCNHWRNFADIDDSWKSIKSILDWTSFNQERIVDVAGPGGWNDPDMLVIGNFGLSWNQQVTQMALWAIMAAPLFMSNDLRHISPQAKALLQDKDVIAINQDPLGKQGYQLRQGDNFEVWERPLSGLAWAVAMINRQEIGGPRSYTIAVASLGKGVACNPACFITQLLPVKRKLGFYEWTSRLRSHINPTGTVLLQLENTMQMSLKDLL
# The depositor's hits bear a star; u = inconclusive; x = not tested or not shown. Only part of the results is shown; the hit share may differ from the screen's.
Rango-impB inh,miR-21 reporter,GLA inh pH 4.5,Rango release inh,SMILES
-1.1%,-0.5%,-0.2,5.5%,O=C(Nc1ccsc1C(=O)NC1CCCCC1)c1ccc(F)cc1
-0.3%,-0.2%,-3.4,0.6%,O=C(c1ccc(S(=O)(=O)N2CCCC2)cc1)N1CCC(CN2C(=O)c3cccc4cccc(c34)C2=O)CC1
0.2%,-13.5%,0.7,16.4%,C=CCN(C(=O)CSC1=NC(=O)CN1C(C)=O)c1nc(C)c(-c2ccccc2)s1
-1.3%,-6.6%,5.4,10.7%,CCN(C(=O)CSc1nnc(-c2ccccc2)o1)c1c(N)n(Cc2ccccc2)c(=O)[nH]c1=O
1.5%,-3.3%,-9.0,10.4%,Cc1cc(C)c2c(-n3cccc3)c(NC(=O)OCc3ccccc3)sc2n1
4.5%,-9.7%,-2.5,-2.3%,COc1ccccc1CNC(=O)c1cc2c(s1)CS(=O)(=O)C2
-2.1%,1.2%,x,7.8%,COc1ccc(Br)cc1CNC(=O)c1ccc2c(c1)N(C)CCS2
-0.8%,-0.2%,8.5,2.2%,NC(=O)CSc1nnnn1-c1ccccc1Cl
-1.6%,x,x,9.6%,O=C(NCc1ccccc1)N1CCN(CCO)CC1
2.0%,-4.4%,0.5,20.5%,O=C(Cn1nnc2ccccc2c1=O)NCc1ccc(Cl)cc1

# Reformatted with each value named: entries from further up.
COc1ccc(Br)cc1CNC(=O)c1ccc2c(c1)N(C)CCS2
  Rango-impB inh = -2.1%
  miR-21 reporter = 1.2%
  GLA inh pH 4.5 = x
  Rango release inh = 7.8%

COc1ccccc1CNC(=O)c1cc2c(s1)CS(=O)(=O)C2
  Rango-impB inh = 4.5%
  miR-21 reporter = -9.7%
  GLA inh pH 4.5 = -2.5
  Rango release inh = -2.3%

# (cont.)
Rango-impB inh,miR-21 reporter,GLA inh pH 4.5,Rango release inh,SMILES
-0.5%,x,x,-12.9%,CCCCC1CCc2[nH]nc(C(=O)O)c2C1 (configuration not stated)
2.2%,0.5%,x,-3.5%,C=C(C)COc1ccc(C2NC(=O)c3ccccc3O2)cc1OCC (configuration not stated)
4.5%,2.5%,-2.2,1.4%,CCOC(=O)CN1CC23C=CC(O2)C(C(=O)Nc2ccc(F)cc2)C3C1=O (configuration not stated)
0.3%,1.9%,x,0.4%,CC(C)(C)NC(=O)NC(=O)COC(=O)C1c2ccccc2Oc2ccccc21
5.7%,16.1%,-8.5,-4.0%,Cc1ccc(SCc2ccc(C(=O)NCc3ccncc3)cc2)cc1
u,-10.1%,-4.5,11.5%,CC1CN=C(N(C(=O)Nc2ccccc2)C(C)C)S1 (configuration not stated)
5.0%,-5.4%,0.7,17.3%,O=C(CSCC(=O)NC1CC1)Nc1ccccc1
-0.1%,-53.6%,x,-5.2%,CCOC(=O)C1(Cc2cccc(OC)c2)CCCN(C(=O)c2ccc(OC)o2)C1 (configuration not stated)
4.3%,-13.0%,x,-12.9%,O=C(NCc1ccc(F)cc1)c1ccc(N2CCOCC2)c([N+](=O)[O-])c1
2.3%,6.4%,-13.1,-0.4%,O=C(N/N=C/c1ccc(-c2cccc(C(F)(F)F)c2)o1)c1cccc(F)c1
2.0%,-1.6%,-6.7,11.8%,Cc1ccc(C(=O)CSc2nnc(COc3cccc4cccnc34)o2)cc1
-0.2%,x,x,4.1%,O=C(NN=Cc1cccc([N+](=O)[O-])c1)c1cc(-c2cccnc2)nc2ccccc12
-0.3%,-2.5%,-1.0,15.2%,O=C(NCCc1ccncc1)c1ccccc1F
0.1%,-3.8%,2.2,5.3%,Cc1nc(C)c2c(c1C(F)(F)F)-c1ccccc1C2(F)F
-0.7%,-2.0%,4.9,2.8%,Cc1nc2ccc(S(=O)(=O)NCC(=O)O)cc2s1
0.0%,1.1%,1.0,6.4%,COc1ccc(CC(=O)OCC(=O)Nc2cccc(Br)c2)cc1
4.0%,-1.5%,x,-20.1%,COc1cc(C)c(C)cc1S(=O)(=O)NC1CC(C)(C)NC(C)(C)C1
1.1%,x,x,-4.9%,O=C(NCC(c1ccc(F)cc1)N1CCOCC1)c1ccc(-c2ccccc2)cc1 (configuration not stated)
1.0%,-3.6%,-1.0,11.9%,COc1ccc(CCNC2CC(=O)N(CCc3ccccc3)C2=O)cc1 (configuration not stated)
1.3%,-6.0%,3.9,3.8%,Cc1cc(-c2c(C)[nH]n(-c3ccccc3)c2=O)n(-c2ccccc2)n1
-0.1%,-0.1%,1.9,3.9%,NC(=S)NNC(=O)Nc1cccc(Cl)c1
-2.9%,x,x,0.6%,COC(=O)[C@@]1(Cc2ccccc2)[C@H]2C(=O)N(Cc3ccccc3)C(=O)[C@H]2[C@H]2CN=C(SCc3ccc(C)cc3)N21
0.8%,-8.3%,x,5.1%,CCOc1ccc(/C=N/n2c(-c3ccccc3)n[nH]c2=S)cc1
5.6%,x,x,-4.7%,CCOC(=O)c1nn(-c2ccc(C)cc2)c(=O)cc1OCC(=O)Nc1cccc(C)c1
1.0%,-4.1%,4.5,-0.7%,CCOc1ccc(C(=O)Nc2c3c(nn2-c2ccc(C)cc2)CS(=O)C3)cc1OCC (configuration not stated)
-3.2%,-7.9%,x,-1.0%,COc1ccc(NC(=O)CS(=O)c2ccc(Cl)c(Cl)c2)cc1 (configuration not stated)
-1.6%,x,x,-12.5%,O=C(Cc1ccc2c(c1)OCCO2)Nc1cccc(S(=O)(=O)N2CCOCC2)c1
0.9%,-3.5%,x,u,O=C(Nc1cc([N+](=O)[O-])ccc1N1CCOCC1)c1cccs1
-1.4%,0.3%,1.2,9.1%,CCn1c(=O)c2c(nc(SCC(=O)NCC3CCCO3)n2C)n(C)c1=O (configuration not stated)
0.2%,-0.4%,x,-11.5%,COc1ccccc1NC(=O)c1ccccc1-c1ccccc1C(=O)O
2.7%,-5.6%,2.3,6.0%,O=C(COC(=O)c1ccc2c(c1Cl)C(=O)c1ccccc1C2=O)NC1CCCCC1
0.3%,-1.9%,x,21.6%,COc1cccc(CNC(=O)c2ccc(Cl)c(NC3=NC4CS(=O)(=O)CC4S3)c2)c1 (configuration not stated)
-3.4%,-49.0%,x,-0.6%,O=C(OCC(=O)N1CCOCC1)c1ccccc1O
-2.9%,4.6%,3.5,1.7%,O=C(C1CCCCC1)N1CCc2ccccc21
0.1%,-2.8%,3.1,-2.1%,Cc1cc(Cl)c(OCCN2C(=O)NC(C)(C)C2=O)c(Br)c1
1.4%,u,-3.0,-10.9%,CCCCCCCn1c(=N)n(CC(=O)c2ccco2)c2ccccc21
-0.8%,x,x,-12.8%,CC(Sc1nnc(-c2ccncc2)n1-c1ccc(F)cc1)C(=O)NC1CC1 (configuration not stated)
-4.9%,-1.6%,-7.0,-21.6%,CC1(C)CC(=O)C(N=Nc2ccc(F)cc2)=C(O)C1
-1.6%,-10.0%,x,-6.7%,C=CCn1c(SCCNC(C)=O)nc2cc(-c3ccccc3)sc2c1=O
2.6%,-5.4%,1.2,15.1%,O=C1CC(N2CCN(c3ccccc3Cl)CC2)C(=O)N1c1ccc(F)cc1 (configuration not stated)
-1.6%,-0.9%,-1.5,-0.1%,O=C(N=Nc1c(O)[nH]c2ccccc12)c1cccc(S(=O)(=O)Nc2ccccc2Cl)c1
1.4%,-0.2%,x,-10.9%,COc1ccccc1CNC(=O)C1CCC(CNS(=O)(=O)c2cccc3cccnc23)CC1 (configuration not stated)
u,-7.1%,-3.7,u,COc1ccc(C2C=C(c3ccc(C)cc3)Nc3ncnn32)cc1 (configuration not stated)
-0.3%,x,x,4.0%,O=C(COC(=O)CNS(=O)(=O)c1ccc(Cl)cc1)NC1CCCCC1
1.4%,-1.3%,x,-6.8%,Cc1c(C)c2c(OCC(=O)NCC(O)c3ccccc3)cc3c(c2oc1=O)CCC(C)(C)O3 (configuration not stated)
-4.0%,x,x,-20.1%,CCn1c(SCC(=O)Nc2cccc(S(=O)(=O)N(C)c3ccccc3)c2)nnc1C1CC1
u,x,x,-25.4%,CCCCNc1c(-c2ccc(OC)c(SC(C)CC)c2)nc2cc(C)ccn12 (configuration not stated)
0.2%,x,x,-16.7%,CC(C)CN1CCN(CCCOC(=O)Nc2cccc3ccccc23)CC1C (configuration not stated)
-1.0%,9.2%,-14.3,14.9%,CCn1nnnc1SCC(=O)N1c2ccccc2CCc2ccccc21
0.2%,-0.4%,4.3,-10.5%,CCOC(=O)C1=C(C)N=C2SC(C)C(=O)N2C1c1ccccc1 (configuration not stated)

# The list goes on.
Rango-impB inh,miR-21 reporter,GLA inh pH 4.5,Rango release inh,SMILES
-0.3%,-0.1%,-12.9,-7.6%,CCOC(=O)Cn1c(CN2CCOCC2)nc2c1c(=O)[nH]c(=O)n2C
u,-0.9%,-1.6,-24.4%,O=C(CNC(=O)c1ccc(F)cc1)N/N=C/c1cc(Br)ccc1OC(=O)/C=C/c1ccco1
0.1%,-7.2%,3.0,8.2%,CS(=O)(=O)N1CCN(c2ccccc2NC(=O)CSc2nnc(-c3ccco3)o2)CC1
3.6%,10.7%,x,6.5%,COC(=O)c1c(NC(=O)c2cccc(N3C(=O)CCC3=O)c2)sc2c1CCN(C(C)=O)C2
1.8%,4.0%,3.8,15.1%,CC(=O)c1cc(CN2CCN(Cc3ccccc3)C(CCO)C2)cs1 (configuration not stated)
-3.0%,-3.9%,14.8,0.6%,CCc1ccc2[nH]c(=O)c(C(c3nnnn3Cc3ccccc3)N3CCOCC3)cc2c1 (configuration not stated)
-0.4%,-16.5%,-2.9,-4.7%,CCn1ncc2c(OCc3ccc(C#N)cc3)cc(C)nc21
1.3%,-59.3%,8.7,1.1%,COc1cc(/C=N/NC(=O)c2ccccn2)cc2c1OCO2
1.9%,x,x,-4.1%,Cc1ccc(CNC(=O)Cn2cnc3c(NC(=O)OCc4ccccc4)ncnc32)o1
-0.4%,-26.9%,-11.6,-1.0%,COc1ccc(C(=O)Nc2ccccc2Cc2ccccc2)c(OC)c1

# Continued, overlapping the part above by two compounds.
Rango-impB inh,miR-21 reporter,GLA inh pH 4.5,Rango release inh,SMILES
1.9%,x,x,-4.1%,Cc1ccc(CNC(=O)Cn2cnc3c(NC(=O)OCc4ccccc4)ncnc32)o1
-0.4%,-26.9%,-11.6,-1.0%,COc1ccc(C(=O)Nc2ccccc2Cc2ccccc2)c(OC)c1
u,-1.0%,x,-8.0%,Cc1ccc(C(=O)NCCNC(=O)c2ccccn2)cc1
-0.5%,x,x,6.5%,CCOC(=O)c1cc2c(c(CCO)n1)[C@@H](CCO)N(S(=O)C(C)(C)C)C2 (some centres not stated)
-0.8%,0.9%,-4.4,11.3%,COc1ccc(S(=O)(=O)N2CCC(C(=O)Nc3cccc(C(C)=O)c3)CC2)cc1C
-0.3%,-19.4%,1.8,-6.0%,COc1ccccc1NCC(=O)N/N=C/c1sccc1C
-2.2%,-6.9%,9.5,0.2%,CCOc1ccccc1OCCCC(=O)Nc1sccc1C(N)=O
0.4%,-3.3%,11.1,3.7%,Cc1csc(SCC(=O)Nc2cccc(S(=O)(=O)N3CCCC3)c2)n1
u,-13.0%,x,2.3%,Cc1cnc(NC(=O)CCc2ccccc2)s1
0.5%,x,x,8.4%,COc1ccc(S(=O)(=O)N2CCCCCC2)cc1C(=O)N(C)Cc1ccc(Cl)cc1Cl
u,1.2%,5.1,u,CCCCC(=O)Nc1ccc(C(=O)Nc2ccc(OC)cc2[N+](=O)[O-])cc1
-1.0%,-16.5%,6.4,u,CC(C)CC(=O)Nc1ccc2c(c1)OCO2
x,-2.0%,-1.5,x,COc1cccc(C2C(C(=O)c3sc(C)nc3C)=C(O)C(=O)N2CCN(C)C)c1OC (configuration not stated)
x,-4.7%,-4.0,x,Cc1cccc2cc(CN(CC3CCCO3)S(=O)(=O)c3ccccc3)c3nnnn3c12 (configuration not stated)
3.0%,-16.9%,3.3,-24.5%,CCOC(=O)Cn1nc(-c2ccccc2)ccc1=O
-0.6%,x,x,1.1%,COc1ccc(OCC(=O)N2CCN(S(=O)(=O)c3ccc(Cl)s3)CC2)cc1
0.7%,-8.3%,-8.8,1.0%,O=C1C2CC=CCC2C(=O)N1c1ccc(NCCc2ccccc2F)c([N+](=O)[O-])c1 (configuration not stated)
0.6%,-4.9%,-2.8,2.1%,N#Cc1ccc(C(=O)Nc2ccc([N+](=O)[O-])cc2)c(F)c1
